Bioassay records from PubChem.
Sa ugtP lethal: kills S. aureus RN4220 lacking UgtP; S. aureus RN4220 ugtP deletion, OD600 growth, 16 h; some inactives read as strong as hits; growth inhibition, % (test concentration not listed); 330,000 tested, 0.54% active; AID 1259309;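 active = z-score under -3 and OD600 up to 0.15 on both plates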;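 also: plate controls were untreated wells for no effect and antibiotic for full effect; wells of about 80 µL received 100 nL stock; the first replicate is given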
PrP UTR inh: suppresses PrP 5' UTR mRNA reporter expression | cell-based PrP 5' UTR mRNA reporter, plate reader | AID 488862 | inhibition, % (concentration not given with the values) | 340,000 tested, 0.35% active;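 active = every replicate at 50% or more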;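 also: 0 = median of the neutral control wells; tested in H4 reporter cells; numbers are from one replicate; inactives centre near -14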
Autofluor counter: compound fluorescence in toxin protease inhibitor counterscreen. fluorescence intensity (test concentration not listed). 360,000 tested, 3.1% active. AID 624483. compound autofluorescence counterscreen, microsphere flow cytometry; active compounds read high;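 active = at least 3 SD above the mean of all compounds, about 16000 in these data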;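 also: 100 nL of 1 mM stock went into each well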
BJeLR lethal: BJeLR cell viability loss. inhibition, % (test concentration not listed). BJeLR (HRASV12) viability, CellTiter-Glo ATP luminescence, 48 h; reference of the scale not given here. AID 1554. 300,000 tested, 0.17% active;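 active = replicate mean above 50%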;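 also: 50 nL library stock added to about 25 µL; numbers are from one replicate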
Mtb hypoxia rep: reduces hypoxia-regulated biosensor signal in M. tuberculosis; M. tuberculosis hypoxia-regulated fluorescent reporter, fluorescence; fluorescence inhibition, % (test concentration not listed); 300,000 tested, 0.1% active;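 active = 35 to 45% if threefold the growth effect, above 45% if 1.5-fold the growth effect; inactive = the rest, general growth blockers included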;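 also: wells of about 50 µL received 100 nL stock; 0% = vehicle wells and 100% = reference inhibitor wells; whole bacteria with a GFP reporter of the hypoxia response; strong numbers were not always called active; many hits fall short of the cut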
RN4220 kill: kills Staphylococcus aureus RN4220 | S. aureus RN4220 growth, OD600, 16 h | inhibition, % (no concentration beside the values) | 330,000 tested, 0.33% active | AID 1259311;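 active = z-score of -3 or lower and OD600 up to 0.18 on both plates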;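 also: plate controls were untreated cells for no effect and reference antibiotic for full effect; stock transfer was 100 nL into about 80 µL; one replicate is shown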
Mtb hypoxia rep growth: recorded beside Mtb hypoxia rep, whose call it bears; growth inhibition, %; measured here: M. tuberculosis growth (absorbance);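 0% = vehicle and 100% = reference antibiotic; read after six days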
The depositor's hits bear a star; . = not tested or not shown.

SMILES | Sa ugtP lethal | PrP UTR inh | Autofluor counter | BJeLR lethal | Mtb hypoxia rep | Mtb hypoxia rep growth | RN4220 kill
Cc1cc(SCC(=O)c2ccc(O)c(O)c2)nc2ccccc12 | 12 | -14 | 4083 | 6 | 6 | 5 | 5.6
CCN(C(=O)CSc1cc(C)c2ccccc2n1)C1CCS(=O)(=O)C1 (centres undefined) | -3 | -16 | 4848 | -2 | 1 | -11 | 0.5
Cc1cc(C)c(NC(=O)COC(=O)CSc2ccc(Br)cc2C)c(C)c1 | 8 | -6 | 2469 | -8 | 1 | 3 | 4.6
CC(=O)NN=C(C)c1cccc(NC(=O)c2cccs2)c1 | 2 | . | . | . | 3 | 6 | 3.5
Cc1c(C(=O)N2CCc3ccccc32)cnn1C | 4 | -11 | 2405 | -2 | -4 | 0 | 6.6
Cn1cccc1C=NN1CCN(Cc2cccc3ccccc23)CC1 | 9 | . | . | . | -3 | -3 | -4.2
CC(C)=NNC(=O)c1c(O)c2ccccc2[nH]c1=O | 24 | -20 | 4151 | 7 | 2 | 12 | 5.7
CCn1cc([N+](=O)[O-])c(C(=O)Nc2nc(-c3ccc(C)cc3)c(C)s2)n1 | . | -15 | 16716* | 4 | . | . | .
CCNC(=O)CCSc1nnc(-c2ccco2)o1 | 7 | 9 | 2542 | -10 | 5 | -6 | 4.9
Cc1ccc(N(C(C)C(=O)N2CCC(C)CC2)S(C)(=O)=O)cc1C (centres undefined) | 7 | -6 | 9377 | -1 | 13 | 9 | 2.9
O=C(NNS(=O)(=O)c1ccccc1Cl)c1nn(-c2ccc(F)cc2)ccc1=O | 1 | -28 | 4628 | 5 | -13 | -3 | -0.6
CN(c1ccc(C(=O)Nc2ccc3c(c2)OCCO3)cc1)S(C)(=O)=O | 2 | -45 | 4296 | 5 | 11 | 3 | -0.3
CC[C@@]1(O)C(=O)OCc2c1cc1n(c2=O)Cc2cc3c(N)cccc3nc2-1 | 1 | 31 | 2807 | 78* | -5 | 0 | 8.8
O=[N+]([O-])c1cccc(-c2nnc3ccc4ccccc4n23)c1 | -1 | -11 | 2357 | 3 | -4 | 2 | 5.2
CC1(C)NC(=O)N(CC(=O)N2CCCC(C(F)(F)F)C2)C1=O (centres undefined) | 13 | 8 | 4950 | -5 | 10 | 5 | 3.8

Some of the entries so far, with values under each structure.
Results follow in this order: Sa ugtP lethal | PrP UTR inh | Autofluor counter | BJeLR lethal | Mtb hypoxia rep | Mtb hypoxia rep growth | RN4220 kill
Cc1cc(C)c(NC(=O)COC(=O)CSc2ccc(Br)cc2C)c(C)c1
→ 8 | -6 | 2469 | -8 | 1 | 3 | 4.6
CC(=O)NN=C(C)c1cccc(NC(=O)c2cccs2)c1
→ 2 | . | . | . | 3 | 6 | 3.5

Other records
SMILES | Sa ugtP lethal | PrP UTR inh | Autofluor counter | BJeLR lethal | Mtb hypoxia rep | Mtb hypoxia rep growth | RN4220 kill
CCOc1cc(S(=O)(=O)NCC2CCCO2)ccc1F (centres undefined) | 3 | -22 | 3990 | 1 | 10 | 15 | 6.5
C/C(CC(=O)NCc1ccco1)=N\NC(=O)Cc1cccc2ccccc12 | . | -16 | 3619 | 2 | . | . | .
COc1ccc(Cl)cc1NC(=O)C1CCN(S(C)(=O)=O)CC1 | 2 | -19 | 4554 | -3 | 16 | 6 | 2.7
O=C(OCc1c(Cl)cccc1Cl)c1ccncc1 | 10 | -16 | 2249 | 11 | 0 | 2 | 4.2
CCN(CC(=O)NCCc1ccc(S(N)(=O)=O)cc1)Cc1nc2cc(OC)c(OC)cc2c(=O)[nH]1 | 3 | -20 | 2324 | 9 | 6 | 3 | 4.5
COC(=O)C(C)N(C(=O)c1ccc(C(=O)c2ccccc2)cc1)c1c(C)cccc1C (centres undefined) | 14 | -17 | 11141 | 5 | 3 | 8 | 5.8
CC(=O)N(c1c(C)n(C)n(-c2ccccc2)c1=O)C1(C(=O)NC2CCCCC2)CCCCC1 | 2 | -17 | 6488 | -12 | 12 | 2 | 0.7
Cc1ccccc1S(=O)(=O)Cc1ccc(C(=O)NCCCN2CCN(C)CC2)o1 | 0 | 7 | 22715* | 3 | 3 | 8 | 5.4
COCCn1c(NCc2ccco2)nc2c1c(=O)[nH]c(=O)n2C | 2 | -31 | 5316 | -2 | 4 | 0 | 2.2
CC(C)C(C(=O)NCc1ccco1)N(Cc1ccco1)C(=O)CNS(=O)(=O)c1ccc(F)cc1 (centres undefined) | 4 | -20 | 4020 | 6 | -1 | 2 | 5.4
COc1ccc(-c2nc(SC(CC(=O)NCCO)c3cccs3)n[nH]2)cc1 (centres undefined) | -64 | -20 | 4416 | 6 | 22 | 8 | 21
CCOC(=O)c1cc(-c2ccccc2)sc1NC(=O)CN1C(=O)NC(CC)(c2ccc(F)cc2)C1=O (centres undefined) | -23 | -10 | 5927 | 2 | 5 | 3 | -2.1
CC(=O)/C(=N\Nc1ccccc1)Sc1nnc(-c2ccccc2)n1-c1ccccc1 | . | 2 | 2531 | 3 | . | . | .
Cc1cc2c(cc1S(=O)(=O)CCC(=O)NC1CCCCC1C)OCC(=O)N2 (centres undefined) | 5 | 7 | 4731 | 0 | 4 | -1 | 9.5
Cc1cccc(N(Cc2ccccc2)C(=O)Cc2ccc(S(=O)(=O)N3CCOCC3)s2)c1 | 13 | -11 | 5972 | -7 | 4 | 2 | 7.2
N#CC1(NC(=O)COC(=O)c2ccccc2SCC(=O)N2CCCC2)CCCCC1 | 11 | -20 | 6769 | -4 | 18 | 3 | 3.0
CCn1c(SCC(=O)NC2(C#N)CCCCC2)nc2ccccc2c1=O | -2 | -22 | 6302 | 0 | -3 | -5 | -0.6
COc1cccc(NC(=O)COC(=O)c2c3c(nc4ccccc24)CCC(C)C3)c1 (centres undefined) | -38 | -9 | 19387* | -4 | 5 | 6 | -4.1
Cc1nc(Nc2ccc(Cl)c(Cl)c2)sc1C(=O)Nc1ccccc1 | 99* | -20 | 2248 | 8 | 8 | 0 | 93*
O=c1[nH]c(CSc2nnnn2-c2ccc(Cl)cc2)nc2ccccc12 | -8 | -6 | 4267 | 2 | -14 | -10 | 1.9
COc1ccc(-n2nnc3c(=O)n(CC(=O)N4CCCc5ccccc54)cnc32)cc1 | 7 | -28 | 5464 | -5 | 9 | 3 | -4.8
Cc1cccc(Nc2ncnc3nc[nH]c23)c1 | 13 | -35 | 5605 | 3 | 11 | 4 | 3.9
CCCN1Cc2cccc(C(=O)N3CCN(c4ccccc4)CC3)c2C1=O | -5 | -32 | 9980 | -1 | 4 | 0 | -2.2
COc1cc2c(cc1NC(=O)c1cccc([N+](=O)[O-])c1C)oc1ccccc12 | -27 | 2 | 11752 | 6 | -6 | 2 | 2.2
CCC(=O)Nc1ccc(C(=O)NNC(=O)c2cc([N+](=O)[O-])cc([N+](=O)[O-])c2)cc1 | 5 | -24 | 2579 | -6 | 1 | 36 | 2.5
CCOc1ccc(Cl)cc1/C=C1/C(=O)ON=C1C | 6 | -12 | 2889 | -1 | -3 | -7 | 3.6
Cc1ccc(S(=O)(=O)N2CCN(c3ccccc3)CC2)cc1C(N)=O | 11 | -19 | 4681 | 4 | 4 | -3 | 4.8
C=CCn1c(SCC(=O)NC2CCCC2)nc2sc(C)cc2c1=O | 5 | 12 | 4519 | -17 | 0 | -1 | 0.8
C=CCc1ccc(O)c(-c2cc(CC=C)ccc2O)c1 | -10 | -4 | 5753 | 4 | . | . | 14
COc1cc(CNCCc2c[nH]c3ccccc23)ccc1OCc1ccccc1F | -44 | -14 | 11746 | -2 | 4 | -2 | -6.8
Cc1cc(OCC(=O)NCCO)cc(C)c1Cl | 2 | -15 | 3939 | -19 | 2 | 5 | 4.0
O=C(Cn1cnc2ccccc2c1=O)N1CCN(Cc2ccccc2)CC1 | 2 | -13 | 3161 | 2 | 4 | 3 | 4.1
Cn1c2ccccc2c2nnc(SCC(=O)NCc3ccoc3)nc21 | 4 | -1 | 4092 | -1 | 9 | 8 | 9.2
CCOc1ccccc1NC(=O)CC1NCCNC1=O (centres undefined) | 0 | -13 | 18163* | -3 | 5 | 6 | 7.0
Cn1nnnc1SC1CC(=O)N(c2ccccc2)C1=O (centres undefined) | -1 | -17 | 5071 | 4 | 4 | 8 | 1.7
c1ccc2c(c1)nc1n2CCN1CCNC1CCCCC1 | -1 | -4 | 4267 | -1 | . | . | -1.5
Cc1cc(C(F)(F)F)nn1CC(=O)NCc1ccco1 | 9 | -34 | 2576 | -1 | 13 | -2 | 5.0
CN(Cc1c(C(=O)NN=Cc2cccs2)nnn1-c1nonc1N)c1ccccc1 | 5 | . | . | . | 15 | 1 | 4.1
O=C(NCc1ccc(F)cc1)C1CCN(S(=O)(=O)c2ccc(Cl)cc2)CC1 | 1 | -3 | 4410 | -15 | -10 | -5 | -3.8
CCOC(=O)CCSc1nc(C)c2cc(OC)ccc2n1 | 19 | -100 | 4562 | 0 | 2 | 5 | 7.3
O=C(NC(=O)c1cc([N+](=O)[O-])ccc1Cl)C1=C(N2CCCC2)COC1=O | 2 | -16 | 3008 | . | -7 | 1 | 9.4
CC(=NNC(=O)c1ccc(Br)o1)c1cccc(NC(=O)c2ccc(C)o2)c1 | 2 | . | . | . | 3 | -1 | -0.4
CCOc1cc(CNCCSc2nnnn2C)cc(Br)c1OCc1ccc(F)cc1 | 5 | -6 | 2550 | 15 | 10 | 8 | 0.7
O=C(c1ccc(F)cc1)C1CCN(C(=S)Nc2ccccc2)CC1 | 0 | -13 | 5387 | -8 | 6 | -2 | 0.5
Cc1cc(C)cc(NC(=O)c2ccccc2NC(=O)CCC(=O)O)c1 | 6 | -25 | 2453 | -1 | 12 | 7 | 6.5

Another view of 4 compounds above.
SMILES	Sa ugtP lethal	PrP UTR inh	Autofluor counter	BJeLR lethal	Mtb hypoxia rep	Mtb hypoxia rep growth	RN4220 kill
CN(Cc1c(C(=O)NN=Cc2cccs2)nnn1-c1nonc1N)c1ccccc1	5	.	.	.	15	1	4.1
CCOc1cc(CNCCSc2nnnn2C)cc(Br)c1OCc1ccc(F)cc1	5	-6	2550	15	10	8	0.7
Cn1c2ccccc2c2nnc(SCC(=O)NCc3ccoc3)nc21	4	-1	4092	-1	9	8	9.2
CCOc1ccccc1NC(=O)CC1NCCNC1=O (centres undefined)	0	-13	18163*	-3	5	6	7.0

(next part)
SMILES | Sa ugtP lethal | PrP UTR inh | Autofluor counter | BJeLR lethal | Mtb hypoxia rep | Mtb hypoxia rep growth | RN4220 kill
O=C(Cc1cccc(NC(=O)C2CCCN(C(=O)C3CCC3)C2)c1)Nc1cccc(C(=O)N2CCCCC2)c1 (centres undefined) | -1 | -17 | 3531 | . | -2 | 4 | 1.7
Cc1c(C(=O)N2CCN(c3ccc(F)cc3)CC2)sc2nc(-c3ccccc3)cn12 | 2 | -9 | 9877 | 0 | 5 | 7 | -2.0
Cc1ccccc1NC(=O)c1ccc(S(=O)(=O)N(C)C)cc1 | 3 | 13 | 6414 | 4 | 1 | -7 | -0.1
Cc1ccc(NC(=O)c2ccc([N+](=O)[O-])o2)c(C)c1 | 1 | -58 | 3316 | 2 | 14 | 26 | 16
O=C(Cn1nnc(-c2cccc(C(F)(F)F)c2)n1)NNS(=O)(=O)c1cccc(C(F)(F)F)c1 | -7 | -22 | 4510 | -5 | -10 | -5 | 12
Cc1ccc(S(=O)(=O)c2nc(-c3cccs3)oc2NCc2cccnc2)cc1 | 8 | -14 | 4474 | 3 | 5 | -1 | 2.0
COCCn1c(SCC(=O)Nc2cccc(OC)c2)nnc1-c1ccc(Cl)cc1 | 3 | -15 | 5589 | -5 | 4 | 3 | 5.8
Cc1sc2ncnc(Sc3ccccc3C(=O)Nc3ccccc3Cl)c2c1C | 1 | -16 | 2476 | -7 | 1 | 14 | 5.9
Cc1onc(-c2c(Cl)cccc2Cl)c1C(=O)Nc1ccc(Cl)cn1 | -12 | 0 | 3479 | -8 | -11 | -18 | -11
O=C(O)c1ccccc1C=NNc1ccc(S(=O)(=O)N2CCOCC2)cc1[N+](=O)[O-] | 2 | . | . | . | 8 | 0 | 1.4
CCCCNC(=O)O[C@H]1C[C@@H]2CCN3C(=O)CCC[C@H]([C@H]1CC)[C@H]23 | . | -11 | 4000 | -4 | . | . | .
NCCCCC1CNC(=O)C(=O)N1CCC12CC3CC(CC(C3)C1)C2 (centres undefined) | -3 | . | . | . | 10 | 2 | 5.6
COc1ccc(C(=O)NCC(=O)N/N=C/c2c(C)[nH]c3ccccc23)cc1 | . | -9 | 5212 | 11 | . | . | .
COc1ccc2oc3cc(C)[n+]([O-])c(-c4ccc(Cl)cc4)c3c2c1 | 16 | -8 | 1870 | -2 | 5 | 2 | -1.7
Cc1cccc(-n2[nH]c3c4c(ccc3c2=O)C(=O)c2ccccc2C4=O)c1 | -5 | -39 | 2519 | 2 | 3 | -2 | 23
